Assay outcomes as filed in PubChem BioAssay.
D2 ag: human D2 receptor agonism in beta-arrestin assay. DiscoveRx PathHunter D2 beta-arrestin, luminescence, 90 min; 100% = 57 uM dopamine signal. activation, % (concentration not given with the values). 0.084% of 360,000 active. AID 624465; in the data active = activation above about 40%; inconclusive = about 15% to 40%; inactive = below about 15%; further: compound concentration not given in the record; the text of the record calls up to 30% inactive
Target sequence (P14416 whole entry, looked up): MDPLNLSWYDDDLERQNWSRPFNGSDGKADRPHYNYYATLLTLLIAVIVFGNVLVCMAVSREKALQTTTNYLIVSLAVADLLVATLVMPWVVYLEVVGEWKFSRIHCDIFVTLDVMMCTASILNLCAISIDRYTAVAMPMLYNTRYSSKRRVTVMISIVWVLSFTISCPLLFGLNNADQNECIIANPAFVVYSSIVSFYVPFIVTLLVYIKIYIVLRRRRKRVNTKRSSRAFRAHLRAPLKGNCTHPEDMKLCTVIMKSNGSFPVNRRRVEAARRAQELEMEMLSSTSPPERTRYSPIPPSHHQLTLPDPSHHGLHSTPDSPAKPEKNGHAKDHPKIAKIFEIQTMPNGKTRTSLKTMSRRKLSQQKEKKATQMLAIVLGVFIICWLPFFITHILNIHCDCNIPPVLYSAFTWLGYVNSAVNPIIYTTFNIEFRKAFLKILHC
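Agonist mode: compounds alone added to overnight-plated D2 PathHunter cells for 90 min at 37 C, with 57 uM final dopamine (EC100) defining full response. Beta-arrestin recruitment detected by chemiluminescent reagent, read after 1 h at ambient temperature.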
CtBP-E1A inh: inhibitors of CtBP/E1A interaction; AID 651724; activity change, % (test concentration not listed); AlphaScreen GST-E1A/His-CtBP binding, 1536-well; hits give low values; control for the full effect not named in the record; 0.49% of 340,000 active; in the data active means activity change below about -65%; inconclusive means about -30% to -65%; inactive means above about -30%; further: on the % scale 0 is the no-effect control and ±100 the full control effect; compound concentration not given in the record
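Protein mix (5X: 125 nM each GST-E1A, His-CtBP) was incubated with pinned compound 2 h at 37 deg C in dark, in 50 mM Tris pH 8.0 buffer with 300 mM NaCl. Glutathione donor and nickel acceptor beads followed; AlphaScreen signal read after 1 h.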
D2 potentiator: human D2 receptor positive allosteric modulation; AID 624464; 0.23% of 360,000 active; DiscoveRx D2 beta-arrestin cells, luminescence, 90 min; 100% = 57 uM dopamine signal; P14416; potentiation, % (test concentration not listed); active = potentiation of 50% or more; inconclusive = 30% to 50%; inactive = 30% or less;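 further: compound concentration not given in the record; tested on top of an EC20 dose of dopamine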
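PathHunter D2 cells, attached overnight at 37 deg C, received compound in DMSO plus dopamine at EC20 (50 nM final) for 90 min at 37 deg C. Beta-arrestin recruitment was read as luminescence after 1 h with detection reagent at ambient temperature.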
TRPML1 agonist: human mucolipin-1 channel agonism; 0.12% of 410,000 active; activation, % (concentration not given with the values); Q9GZU1; TRPML1-expressing cells, Ca2+ dye fluorescence, FDSS; host cell line not named in the record; reference of the full effect not given here; in the data active = activation above about 50%; inconclusive = about 30% to 50%; inactive = below about 30%; further: 0% is about no effect; the text of the record puts the active cut at 80%
Target sequence (Q9GZU1 whole entry, looked up): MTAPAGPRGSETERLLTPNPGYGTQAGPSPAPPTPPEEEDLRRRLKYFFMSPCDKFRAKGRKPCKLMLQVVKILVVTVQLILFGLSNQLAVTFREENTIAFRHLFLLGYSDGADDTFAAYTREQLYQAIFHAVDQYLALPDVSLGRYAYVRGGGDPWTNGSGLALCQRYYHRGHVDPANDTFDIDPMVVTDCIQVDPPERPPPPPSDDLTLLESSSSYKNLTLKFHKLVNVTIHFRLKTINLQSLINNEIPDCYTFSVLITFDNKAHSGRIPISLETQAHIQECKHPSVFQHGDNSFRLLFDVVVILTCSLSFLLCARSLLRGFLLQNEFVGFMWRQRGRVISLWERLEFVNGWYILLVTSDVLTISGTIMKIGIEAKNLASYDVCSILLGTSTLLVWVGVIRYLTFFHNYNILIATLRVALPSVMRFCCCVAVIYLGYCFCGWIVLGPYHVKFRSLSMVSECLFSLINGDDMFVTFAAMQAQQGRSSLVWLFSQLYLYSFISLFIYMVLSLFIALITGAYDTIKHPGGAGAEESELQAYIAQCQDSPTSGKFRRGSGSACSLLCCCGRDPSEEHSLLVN
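Agonist activity was taken from a 110 s kinetic Ca2+ dye read on the FDSS after pinning compounds onto TRPML1-DL cells. The cells were seeded at 1,500/well with Tet inducer, incubated about 16 h, then dye-loaded at room temperature.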
PINK1 modulator: PINK1 expression modulation; PINK1 immunofluorescence, high-content cytometry, 24 h; Potency, µM (doses to about 76.6 µM), inactives show top-dose activation (PINK1 increase), usual class: activators; 0.2% of 410,000 active; AID 624263; active = well fitted activation curve with a large enough effect; inconclusive = small, poorly fitted or top-dose-only effect; inactive = flat fitted curve, though single readings scatter; cell line not stated here;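 further: potency means the concentration at half of the fitted maximal effect; % of control where 0% means no effect; nearly all actives have a fitted effect of over 65% in size; a mitochondrial uncoupler was the plate control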
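Compound titrations (5 concentrations, 24 h) on a stable cell line; DMSO and CCCP controls. Endpoint: fixed-cell PINK1 immunofluorescence with mitochondrial, cell and nuclear markers, scanned by microplate cytometer.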
Six1-Eya2 blk: blocks human Six1 binding to Eya2. Q15475+O00167. AlphaScreen GST-Six1/His-Eya2 binding, biochemical; hits give low values; control for the full effect not named in the record. activity change, % (no concentration beside the values). 0.56% of 360,000 active; in the data active = activity change below about -65%; inconclusive = about -30% to -65%; inactive = above about -30%; further: on the % scale 0 is the no-effect control and ±100 the full control effect; compound concentration not given in the record
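GST-Six1 + His-Eya2 (5X stock: 250/500 nM); Tris pH 8.0, 300 mM NaCl, 0.05% BSA, 0.02% Tween 20; GSH donor/Ni acceptor beads; 1 h 37 °C dark; AlphaScreen readout.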
An asterisk follows results filed as active; ? = inconclusive; . = no result given; [ ] = remark or other dose.

SMILES	D2 ag	CtBP-E1A inh	D2 potentiator	TRPML1 agonist	PINK1 modulator	Six1-Eya2 blk
CCN(CC)CCOc1ccc2c(c1)C(=NNC(=O)c1ccccn1)c1cc(OCCN(CC)CC)ccc1-2	-5.7	-70*	-5	2.3	-2.6%	-74*
O=C(NCc1ccccc1)c1onc(CSc2ccccc2)c1C(=O)NCc1ccccc1	1.7	6	?	4.2	-0.2%	9
O=C(COC(=O)[C@@H]1CC(O)CN1S(=O)(=O)c1ccc(Cl)c(Cl)c1)NC(=O)NCc1ccccc1 (stereo not given in full)	2.2	-1	-1	0.1	-0.7%	0
COc1ccc(Cl)cc1NC(=S)N(CCN1CCOCC1)C1CCN(C(C)=O)CC1	-6.3	1	-3	-0.8	4.1%	2
O=C(O)c1cn(-c2ccc(F)c(F)c2)c2c(F)c(F)c(F)c(F)c2c1=O	-1.5	8	-5	1.0	-1.6%[38.3 µM]	-2
COCCCN1C(=O)C(O)=C(C(C)=O)C1c1ccccn1 (stereo not given)	-1.1	3	12	1.0	1.1%	3
COc1ccc(CCNC(=O)CCCOc2cc(=O)n(C)c3ccccc23)cc1OC	-0.5	-7	2	0.9	1.6%	-8
N/C(=N\OC(=O)COc1ccc2ccccc2c1Br)c1ccccn1	-3.9	.	7	2.9	-0.6%	4
O=C1C(=Cc2cccn2-c2ccccc2)C(=O)c2ccccc21	3.2	-2	28	0.8	?	1
COC(=O)c1ccc(Cl)c(NC(=O)c2cccc([N+](=O)[O-])c2C)c1	-2.6	-14	-3	0.6	0.3%	4
N#C/C(C(=O)N1CCOCC1)=c1/s/c(=C\c2ccccn2)c(=O)n1-c1ccccc1	-4.0	10	-1	0.3	10.0%	18
CCOC(=O)N1CCN(Cc2nc(N)nc(Nc3ccc(Oc4ccccc4)cc3)n2)CC1	-2.6	-13	0	1.8	2.8%	?
Cc1ccc(NC(=O)c2ccc3ccccc3n2)cc1S(=O)(=O)N1CCOCC1	-1.6	-10	6	0.6	12%	-25
Cc1cc(=O)oc2c(N)c(O)ccc12	-4.6	-2	2	-0.5	-0.8%	-3
CC(C)OCCCn1c(SC(C)C(=O)NC2CC2)nc2ccccc2c1=O (stereo not given)	0.7	7	-6	-0.6	1.9%	8
CCOC(=O)C1CCN(c2ncnc3c2oc2ccc(Br)cc23)CC1	1.3	8	-9	-0.2	3.4%[38.3 µM]	4
Cc1cccc(OCCCCN2CCNCC2)c1	1.8	0	-3	1.3	2.4%	7
CNC(=S)N1CCN(c2nc(-c3ccc(Cl)cc3)cs2)CC1	1.8	-16	-6	-0.2	7.2%	-25
CCn1c(CN2CCOCC2)nnc1SCC(=O)Nc1ccccc1Cl	-3.0	6	-6	0.3	1.3%	-5
CN1CCN(C(=O)c2ccc(C3SCC(=O)N3Cc3ccco3)cc2)CC1 (stereo not given)	-1.8	-16	-21	-0.2	0.2%	-13
CC(C)CC(=O)Nc1cccc2c1C(=O)N(c1ccccc1)C2=O	-1.9	4	-4	2.6	2.4%	2
O=C(Nc1c(S(=O)(=O)c2ccc(Cl)cc2)csc1Br)c1ccccc1Cl	0.7	5	-5	0.8	3.7%	-2
COc1ccc(-c2nc(-c3ccccc3)c(-c3cc([N+](=O)[O-])ccc3C)[nH]2)cc1O	-3.3	-24	-5	0.7	-0.4%	-29
CC(C)Oc1cccc(C(=O)C2CCCN(C(=O)c3ccc4c(c3)OCO4)C2)c1 (stereo not given)	1.7	0	-10	-0.9	0.3%	2
CN(C)S(=O)(=O)c1ccc(C(=O)Oc2cc(=O)[nH]c3ccccc23)cc1	-1.0	-1	-6	0.5	-1.3%	4
CC(C)(C)OC(=O)N1CCC[C@H]1C(=O)N1CCC[C@H]1C(=O)NCc1ccncc1	.	-1	.	-0.6	3.0%	1
COC(=O)c1ccc(SCc2cnc(Cl)s2)cc1	1.2	10	-10	0.6	2.1%[38.3 µM]	10
CN(Cc1ccccc1)S(=O)(=O)c1ccccc1[N+](=O)[O-]	1.2	-26	-4	-0.2	3.4%	0
Cc1cc([N+](=O)[O-])nn1CCCC(=O)Nc1cc(Cl)ccc1Cl	-8.5	5	-2	-0.1	4.3%	-2
COC(=O)COc1ccc(S(=O)(=O)N2CCc3ccccc3C2)cc1C	2.4	4	10	1.3	.	5

An excerpt of the results above, for reference:
SMILES	D2 ag	CtBP-E1A inh	D2 potentiator	TRPML1 agonist	PINK1 modulator	Six1-Eya2 blk
CCOC(=O)C1CCN(c2ncnc3c2oc2ccc(Br)cc23)CC1	1.3	8	-9	-0.2	3.4%[38.3 µM]	4
Cc1cccc(OCCCCN2CCNCC2)c1	1.8	0	-3	1.3	2.4%	7
CNC(=S)N1CCN(c2nc(-c3ccc(Cl)cc3)cs2)CC1	1.8	-16	-6	-0.2	7.2%	-25

Fetched by structure from the list above, 2 records:
SMILES	D2 ag	CtBP-E1A inh	D2 potentiator	TRPML1 agonist	PINK1 modulator	Six1-Eya2 blk
COC(=O)COc1ccc(S(=O)(=O)N2CCc3ccccc3C2)cc1C	2.4	4	10	1.3	.	5
CN1CCN(C(=O)c2ccc(C3SCC(=O)N3Cc3ccco3)cc2)CC1 (stereo not given)	-1.8	-16	-21	-0.2	0.2%	-13

(listing goes on)
SMILES	D2 ag	CtBP-E1A inh	D2 potentiator	TRPML1 agonist	PINK1 modulator	Six1-Eya2 blk
CCCNc1[nH]c(=O)n(C)c(=O)c1N=O	-2.2	-1	12	0.0	0.6%	10
COc1cc(C)c(CN2CCN(C(=O)CCC(=O)c3ccc(C)s3)CC2)cc1OC	-1.1	-1	-21	-0.8	2.1%	-1
Cc1ccccc1N(C(=O)CCC(=O)Nc1ccccn1)C(C(=O)NC(C)C)c1ccc(O)cc1 (stereo not given)	-5.2	14	-1	0.1	-0.7%	-1
Cc1ccc(S(=O)(=O)c2c(N)n(/N=C/c3ccco3)c3nc4ccccc4nc23)cc1C	2.5	-11	-3	2.7	2.5%	6
O=C(O)CC1(C(=O)O)CCCC1	0.8	-19	-3	2.5	-2.1%	-1
COc1ccccc1N1CCN(C(=O)c2noc(C(C)C)c2[N+](=O)[O-])CC1	11	-5	1	-0.6	0.0%	6
COc1ccc(-c2cnc(C(O)c3ccc(OC)c(F)c3)[nH]2)cc1 (stereo not given)	-3.3	-3	-15	-0.6	2.0%	-11
CCOc1ccc2nc(N(CCN(C)C)C(=O)c3ccc4ccccc4c3)sc2c1	-4.7	-14	-33	-0.2	9.3%	-11
COc1ccc(NC(=O)COC(=O)c2ccco2)c([N+](=O)[O-])c1	1.7	-1	3	2.7	-1.4%	-4
C=CCSc1nnc(NC(=O)COc2ccc3ccccc3c2)s1	2.0	0	-11	0.7	-4.5%[38.3 µM]	-4
C#CC[N+](C)(C)CC#Cc1ccccc1	-1.5	.	-4	0.9	1.7%	1
CCOC(=O)C1(C)CCCN1C(=O)c1cccc(OC)c1 (stereo not given)	3.2	-9	1	-0.7	-0.2%	7
COC(=O)c1ccc(CSc2nc(C)nc3sc(C)c(C)c23)o1	-0.6	7	-7	0.0	?	0
COc1ccccc1NC(=O)C1=C(C)Nc2nc(-c3ccc(N(C)C)cc3)nn2C1c1ccncc1 (stereo not given)	1.0	-18	13	-0.1	-0.8%[38.3 µM]	-15
O=C(CSc1ccccc1)NC1=NCCS1	0.1	6	-1	-0.2	-1.4%	2
CCCCNc1nc2ccccc2nc1Cl	-1.7	3	-16	2.9	5.8%	30
CCCCn1c(N)c(N(CCOC)C(=O)C2CCN(S(=O)(=O)c3ccccc3)CC2)c(=O)[nH]c1=O	-5.5	4	3	-0.1	2.3%	6
O=c1ccc(-c2ccccc2)n[nH]1	-2.1	6	-2	0.7	-4.7%[38.3 µM]	6
CN(C1CCS(=O)(=O)C1)S(=O)(=O)c1ccc2ccccc2c1 (stereo not given)	-1.5	6	-1	-0.6	1.2%	1
C/C=C/c1ccc(OCC(=O)OCC)c(OC)c1	2.8	2	-7	0.2	0.0%	0
CC(=O)Nc1ccc(NC(=O)C2CCCN(S(=O)(=O)c3ccc(-n4cnnn4)cc3)C2)cc1 (stereo not given)	-5.9	5	2	-0.1	18%	4
CC(C)(CC1(C)NC(=O)NC1=O)OCc1ccccc1 (stereo not given)	-2.4	6	5	-0.2	0.4%	1
COc1cc(OC)cc(C(=O)NNC(=O)c2ccc(-n3cncn3)c([N+](=O)[O-])c2)c1	-4.6	0	-7	-0.8	2.8%	-11
N#CC(/C(=N/S(=O)(=O)c1cccs1)c1ccccc1)c1nc2ccccc2[nH]1 (stereo not given)	2.8	-19	29	-0.4	9.5%	-12
CCOC(=O)Cn1nnnc1CN(CCc1ccccc1)Cc1cc2cc(CC)ccc2[nH]c1=O	2.3	-7	-6	-0.5	-0.2%[38.3 µM]	-2
O=C(COc1cccc2ccccc12)N/N=C/C=C/c1ccccc1	-2.3	1	1	0.8	8.4%	9
COc1ccc2[nH]cc(CCN=C3SCC(=O)N3C)c2c1	-2.1	0	2	0.0	-0.4%	-10
O=S(=O)(NCCc1cccs1)c1ccc(Br)cc1	10	-1	-1	2.2	4.2%	2
O=C1CCC(=O)N1c1nc2nc(-c3ccccc3)cc(=O)n2[nH]1	-3.2	1	-23	-0.2	0.6%	-2
Cc1oc(C(=O)O)cc1COc1ccccc1Cl	-2.9	-1	-6	1.3	-0.2%	0
CN1CCN(CCNC(=O)c2cc3c(=O)n(C)c4ccccc4c3n2C)CC1	-3.5	-9	-7	0.3	2.0%	-2
Cc1c(N2C(=O)/C(=C/c3ccc(N(C)C)cc3)N(C)C2=S)c(=O)n(-c2ccccc2)n1C	-5.3	-24	-14	6.1	1.4%	-23
O=C(NCCc1ccc(F)cc1)Nc1ccccc1	-4.4	5	0	0.5	0.9%	19
CCOCCCn1c(=N)c(S(=O)(=O)c2ccc(C)cc2)cc2c(=O)n3cc(C)ccc3nc21	-4.6	3	-3	0.5	1.0%	2
CCOC(=O)c1cn(CC(=O)Nc2ccc(CC)cc2)nn1	-2.2	5	-6	-0.7	-0.9%	22
CN(C)S(=O)(=O)c1cccc(NC(=O)COC(=O)CCOc2ccccc2)c1	-2.7	8	-9	-0.7	1.5%	9
CC(C)Cc1cc(C(=O)Nc2ccc(F)cc2F)no1	-0.3	34	-6	-0.2	0.7%	-2
CCN(CC)CCNC(=O)CCc1c(C)nc2c(c(C)nn2-c2ccc(C)c(C)c2)c1C	-3.6	4	-10	.	-0.6%	1
O=C(O)CSc1sc(=S)sc1SCC(=O)O	-2.3	14	-18	2.5	-0.8%[38.3 µM]	0
CNC(=O)c1cc(Oc2ccc(NC(=O)c3[nH]c(-c4ccccc4)c4c3C(=O)N(C)C4=O)cc2)ccn1	-1.1	42	1	0.6	3.4%	25
COCCNC(=O)c1cc2nc3c(c(C(F)(F)F)n2n1)CCc1ccccc1-3	-1.9	-5	-8	2.3	2.3%	12
CCN(CC)c1c(C)nc2ccc(C(=O)NCc3ccc4c(c3)OCO4)cn12	3.0	1	-2	-0.1	-0.1%	-3
CCCCn1c(N)c(N(CCOC)C(=O)c2ccc(N(C)S(=O)(=O)c3ccc(C)cc3)cc2)c(=O)[nH]c1=O	-5.3	4	-1	0.4	2.3%	6
